Cruzain inh noDet – cruzain (T. cruzi) inhibition without detergent; purified cruzain, Z-FR-AMC fluorescence, no detergent; Potency, µM, for inactives: max response, negative = inhibition, usual class: inhibitors; hit rate 2.3% among 200,000; AID 1476; active means well fitted curve in the direction sought with a large enough effect; inconclusive means small, poorly fitted or top-dose-only effect, or another doubt; inactive means no such curve, though single readings can be large; an effect the other way counts as inactive or inconclusive;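 further: plate controls were enzyme without inhibitor for no effect and buffer without enzyme for full effect; nearly all actives have a fitted effect of over 40% in size; top concentration of the series not given in the record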
Target sequence (P25779 123-467 limits assumed): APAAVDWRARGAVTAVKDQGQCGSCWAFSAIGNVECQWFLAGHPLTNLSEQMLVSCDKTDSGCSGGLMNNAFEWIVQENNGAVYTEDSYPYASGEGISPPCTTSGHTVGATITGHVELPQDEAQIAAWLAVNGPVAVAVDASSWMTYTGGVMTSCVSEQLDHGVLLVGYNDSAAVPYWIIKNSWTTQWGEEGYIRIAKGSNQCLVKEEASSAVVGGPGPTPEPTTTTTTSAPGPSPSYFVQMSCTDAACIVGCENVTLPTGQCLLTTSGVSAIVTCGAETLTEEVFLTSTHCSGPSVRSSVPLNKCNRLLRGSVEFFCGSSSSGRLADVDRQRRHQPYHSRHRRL
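Purified cruzain at 1.5 nM, pre-incubated 15 min with compound at room temperature in 100 mM sodium acetate pH 5.5, 5 mM DTT, 0.00005% Triton X-100. Reaction started with 2 uM Z-FR-AMC; AMC fluorescence increase over 60 s gives rate.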
Cruzain inh Det – inhibitors of Trypanosoma cruzi cruzain with detergent; AID 1478; P25779; hit rate 0.43% among 200,000; purified cruzain, Z-FR-AMC fluorescence, 0.01% Triton; Potency, µM, for the others: max response, negative = inhibition, actives largely listed as inhibitors; active means well fitted curve in the direction sought with a large enough effect; inconclusive means small, poorly fitted or top-dose-only effect, or another doubt; inactive means no such curve, though single readings can be large; an effect the other way counts as inactive or inconclusive;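 further: plate controls were neutral wells for no effect and buffer without enzyme for full effect; nearly all actives have a fitted effect of over 40% in size; top concentration of the series not given in the record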
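Sodium acetate buffer (100 mM, pH 5.5) containing 5 mM DTT and 0.01% Triton X-100 hosted 1.5 nM cruzain and test compound for 15 min at room temperature. Cleavage of 2 uM Z-FR-AMC was then tracked by fluorescence.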
SARS PLpro yeast – blocks SARS-CoV papain-like protease in a yeast assay; Potency, µM (titrated, usually from 32.9 µM), without a hit: top-dose activity, positive = growth rescue; S. cerevisiae expressing SARS-CoV PLpro, growth rescue; control for the full effect not named in the record; hit rate 0.19% among 330,000; further: 0% is about no effect; nearly all actives have a fitted effect of over 55% in size; growth read by luminescence after 48 h
StopGo reporter – lowers the luciferase signal of an FMDV 2A StopGo reporter | human cells with a luciferase reporter of 2A StopGo recoding; control for the full effect not named in the record | Potency, µM (top dose mostly 57.9 µM), for the others: at the top dose signal change, negative = less light | hit rate 1.2% among 410,000 | AID 1159524; active = well fitted falling curve with a large enough effect; inconclusive = small, poorly fitted or top-dose-only effect; inactive = no such curve, though single readings can be large or run the other way; tested in HEK293T cells; further: on the % scale 0 is the no-effect control and ±100 the full control effect; nearly all actives have a fitted effect of over 45% in size; luciferase light after 4 h
Lassa entry inh – inhibitors of Lassa virus binding or cell entry | Potency, µM (series often up to 37.9 µM), inactives show top-dose activity change, negative = inhibition, usual class: inhibitors | Lassa virus pseudotype entry inhibition, cell reporter; control for the full effect not named in the record | hit rate 1.2% among 300,000; active means well fitted inhibition curve with a large enough effect; inconclusive means small, poorly fitted or top-dose-only effect, or effect the other way; inactive means flat fitted curve, though single readings scatter; tested in HEK293 cells; further: on the % scale 0 is the no-effect control and ±100 the full control effect; nearly all actives have a fitted effect of over 50% in size; luciferase read-out
RE007 growth inh – less growth of the S. pombe RE007 Vpr strain; Potency, µM (doses to about 92.2 µM), inactives show top-dose activity change, negative = less growth; hit rate 0.21% among 360,000; S. pombe RE007 Vpr strain, BacTiter-Glo ATP luminescence, 24 h; control for the full effect not named in the record; active = well fitted falling curve with a large enough effect; inconclusive = small, poorly fitted or top-dose-only effect; inactive = no such curve, though single readings can be large or run the other way;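 further: on the % scale 0 is the no-effect control and ±100 the full control effect; nearly all actives have a fitted effect of over 50% in size; the assay follows cell death caused by Vpr and the record does not say whether a fall means rescue or toxicity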
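Fission yeast strain RE007, carrying one chromosomally integrated HIV-1 vpr copy, was seeded at OD 0.01 in PMG+AL medium with 23 nL pinned compound. After 24 h at 30 °C and 99% humidity, viability was read by BacTiter-Glo luminescence.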
NS1 inh – influenza NS1 inhibition; S. cerevisiae slowed by influenza A NS1, growth recovery by OD600; Potency, µM (titrated, usually from 46.1 µM), without a hit: at the highest dose activity, positive = more growth; hit rate 0.4% among 270,000; AID 2326; further: actives are rising curves; nearly all actives have a fitted effect of over 50% in size
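Growth recovery, yeast-based: influenza A NS1 expressed in S. cerevisiae causes slow growth, and suppressors are detected by OD600. The parent strain without NS1 is used as positive control.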
MARV entry inh – blocks Marburg virus binding to or entry into cells; Marburg virus pseudotyped entry inhibition, cell reporter; control for the full effect not named in the record; about a third of the inactives were read at about 46 µM; Potency, µM (top dose mostly 37.8 µM), for the others: at the highest dose activity change, negative = inhibition, usual class: inhibitors; hit rate 1.8% among 300,000; active = well fitted inhibition curve with a large enough effect; inconclusive = small, poorly fitted or top-dose-only effect, or effect the other way; inactive = flat fitted curve, though single readings scatter; tested in HEK293 cells; about a fifth of its hits are not listed in these tables; further: on the % scale 0 is the no-effect control and ±100 the full control effect; luciferase read-out
* = called active by the depositor; u = inconclusive; x = not tested or not shown; & = joins results of further samples; [ ] = another dose, or the depositor's remark. Unless noted, the call rests on the fitted dose curve; in most records, active means well fitted rising curve with a large enough effect; inconclusive means small, poorly fitted or top-dose-only effect; inactive means no such curve, though single readings can be large or run the other way. Potency means the concentration at half of the fitted maximal effect.

Below each SMILES – StopGo reporter	MARV entry inh	RE007 growth inh	SARS PLpro yeast	Lassa entry inh	Cruzain inh Det	Cruzain inh noDet	NS1 inh
1) CC(=O)N1CCN(c2ccc([N+](=O)[O-])cc2C#N)CC1
  -5.3%	24.2%[46.1 µM]	-12.4%	-0.9%	-2.3%[46.1 µM]	x	x	x
2) CCOc1ccccc1Nc1sc(C(=O)c2ccccc2)c(N)c1C(=O)NCCc1ccccc1
  -0.2%	x	x	x	6.9%[46.1 µM]	0.6%	-24.8%	x
3) CC(Sc1nc2cc([N+](=O)[O-])ccc2n1-c1ccc(F)cc1)C(=O)NCc1ccc2c(c1)OCO2 (stereo not drawn)
  -2.1%	u	-7.1%	14.8%	u	-12.5%	u	u
4) COc1ccc(C(=O)OCCc2sc[n+](CC(=O)c3ccccc3)c2C)cc1
  -16.4%	-0.6%[46.1 µM]	8.2%	1.8%	2.1%	x	x	6.7%
5) Cc1ccc(-c2onc(C)c2C)cc1S(=O)(=O)N1CCOc2ccccc21
  0.0%	x	-8.1%	16.8%	x	x	x	14.0%
6) COc1ccc(CCN2C(=O)CS/C2=N/NC(=O)c2ccccc2F)cc1OC
  -31.6%	-7.3%	13.3%	-6.5%	0.2%	1.4%	6.4%	-5.3%
7) COc1ccc(OC)c(NC(=O)CSc2nc(-c3ccccc3C)nc3cc(=O)[nH]n23)c1
  -22.0%	x	x	x	0.5%[46.1 µM]	-9.0%	19.8%	x
8) CCCOc1ccccc1/C=C1\SC(N)=NC1=O
  -10.3%	20.0%[46.1 µM]	-7.9%	u	3.8%[46.1 µM]	x	x	-8.2%
9) COc1cccc(CNC(=O)CCC2CCCN(c3cc(C)nc(N(C)C)n3)C2)c1 (stereo not drawn)
  -5.6%	u	7.8%	0.2%	-15.6%[46.1 µM]	x	x	-5.2%
10) CCON1C(=O)C2(CCCCC2)C(=O)C12C=CCCC2 (stereo not drawn)
  -14.4%	15.8%	1.6%	x	1.5%	x	x	x
11) COc1cc(CNC(=O)c2cnc3c(-c4cccc(C)c4)c(C)nn3c2C)cc(OC)c1OC
  -21.8%	x	x	x	-28.0%[46.1 µM]	-6.0%	u	x
12) CCOC(=O)CSC1=C(C#N)C(c2ccc(C)o2)CC(=O)N1 (stereo not drawn)
  -28.6%	x	-9.4%	-2.7%	x	-5.2%	2.4%	-3.6%
13) CCN1CCN(c2oc(-c3ccco3)nc2C#N)CC1
  -2.0%	-0.6%	-6.9%	1.3%	1.2%	x	x	-4.1%
14) CCOCCN1CCN(c2nnc3n2-c2ccc(Cl)cc2C(c2ccccc2Cl)=NC3)CC1
  -12.8%	-12.3%	-15.2%	3.8%	u	-5.3%	-0.2%	-1.4%
15) CC(=O)c1ccc(C(=O)N2CCCC(CNC(=O)c3ccccc3Cl)C2)cc1 (stereo not drawn)
  35.1%[activator]	-14.8%	0.0%	-0.2%	-6.8%	x	x	-0.1%
16) CC(C)OCCCn1c(=O)c2ccccc2n2c(-c3cc(Cl)ccc3O)nnc12
  -7.4%	7.7%[46.1 µM]	x	x	5.7%[46.1 µM]	-9.6%	6.6%	x
17) CSCCC(C(=O)N1CC2(C)CC1CC(C)(C)C2)N1C(=O)c2ccccc2C1=O (stereo not drawn)
  35.6%[activator]	u	4.4%	2.6%	9.9%	-4.1%	22.5%	-12.5%
18) COc1ccc(NC(=O)COC(=O)CCc2cc(OC)c(OC)c(OC)c2)c([N+](=O)[O-])c1
  5.6%	1.9%[46.1 µM]	-6.0%	8.2%	-0.5%[46.1 µM]	x	x	34.1%
19) CCC(C)C(NC(=O)C1CCC(=O)N1C(=O)OCc1ccccc1)C(=O)NC(Cc1ccccc1)C(N)=O (stereo not drawn)
  18.2%	16.4%[46.1 µM]	-1.2%	-0.3%	10.9%[46.1 µM]	x	x	23.6%
20) O=[N+]([O-])c1cccc(OCC(O)CN2CCN(S(=O)(=O)c3cc(Cl)ccc3Cl)CC2)c1 (stereo not drawn)
  -15.5%	u	-13.0%	-26.4%	12.6%[46.1 µM]	x	x	-13.7%
21) COc1cccc(CNCCc2ccc(F)cc2)c1
  -12.4%	x	-0.3%	-0.9%	x	x	x	1.4%
22) CC1(C)C/C(=N\NC(=S)Nc2ccccc2F)c2cc(O)ccc2O1
  -27.4%	u	2.8%	4.0%	u	x	x	x
23) CCOc1cccc(C2c3c(oc4ccccc4c3=O)C(=O)N2c2nc(C)c(C(=O)OC)s2)c1 (stereo not drawn)
  1.3%	5.0%[46.1 µM]	x	x	-0.6%[46.1 µM]	0.0%	7.2%	x
24) O=C(Cn1cnc2c(cnn2-c2ccc(F)cc2)c1=O)N1CCN(c2ccccc2)CC1
  -27.3%	5.3%	-18.9%	-9.5%	-7.0%	-1.9%	-12.5%	3.9%
25) COc1ccc(-c2cc(C(F)(F)F)nc(SCC(=O)N(C)Cc3ccccc3)n2)cc1
  -12.8%	-9.7%[46.1 µM]	x	x	u	-13.2%	23.5%	x
26) CN(Cc1cn(-c2ccccc2)nc1-c1ccc2c(c1)OCO2)Cc1nccn1C
  -19.1%	x	-2.4%	-2.3%	x	x	x	5.3%
27) CCO[C@@H]1OC(C(=O)NCc2nc3ccccc3[nH]2)=C[C@H](c2ccc(C(F)(F)F)cc2)[C@H]1CCCO
  0.0%	x	-0.7%	0.3%	x	x	x	-0.1%
28) Cc1ccc(NC(=O)CSCC(=O)Nc2cc(Cl)ccc2N2CCN(C)CC2)cc1
  -20.9%	u	-16.6%	-0.7%	-22.7%	x	x	x
29) Cc1ccc2nc(-c3cccc(NC(=O)c4cccc5c(Cl)cccc45)c3)oc2c1
  38.4%[activator]	23.8%[46.1 µM]	x	x	26.3%[46.1 µM]	7.3%	9.8%	x
30) CCN(C(=O)CSc1ncccc1C(=O)Oc1cccc([N+](=O)[O-])c1)c1cccc(C)c1
  25.1µM*	4.5%	x	18.4%	8.6%	-3.7%	-3.5%	18.9%

Reformatted with each value named: part of the list above
26: CN(Cc1cn(-c2ccccc2)nc1-c1ccc2c(c1)OCO2)Cc1nccn1C
  StopGo reporter: -19.1%	MARV entry inh: x	RE007 growth inh: -2.4%	SARS PLpro yeast: -2.3%	Lassa entry inh: x	Cruzain inh Det: x	Cruzain inh noDet: x	NS1 inh: 5.3%
10: CCON1C(=O)C2(CCCCC2)C(=O)C12C=CCCC2 (stereo not drawn)
  StopGo reporter: -14.4%	MARV entry inh: 15.8%	RE007 growth inh: 1.6%	SARS PLpro yeast: x	Lassa entry inh: 1.5%	Cruzain inh Det: x	Cruzain inh noDet: x	NS1 inh: x

Remaining list, next part:
Below each SMILES – StopGo reporter	MARV entry inh	RE007 growth inh	SARS PLpro yeast	Lassa entry inh	Cruzain inh Det	Cruzain inh noDet	NS1 inh
31) Cc1ccc(OCC(=O)NNC(=O)CSc2nnc(-c3ccc(C)cc3)n2C)cc1
  16.5%	7.1%	6.4%	u	6.1%	-2.8%	12.7%	5.6%
32) O=C(/C=C/c1cccs1)N1CCN(Cc2ccc3c(c2)OCO3)CC1
  -24.5%	u	1.0%	-20.5%	2.6%	-4.9%	-3.1%	12.8%
33) CCOC(=O)C(O)(CC(=O)Nc1cc(F)ccc1C)C(F)(F)F (stereo not drawn)
  10.0%	-4.1%	-8.4%	10.0%	-1.1%	1.5%	-0.7%	2.8%
34) Cc1cc(C)cc(NC(=O)CCC(=O)Nc2cc(C)on2)c1
  x	7.2%	-6.7%	-1.1%	2.3%	-3.0%	-5.5%	2.7%
35) CCn1c(C)cc(O)c(C(=O)Nc2cccc(Cl)c2)c1=O
  -9.2%	x	1.6%	u	x	x	x	-3.7%
36) O=C(Nc1ccc(Cl)cc1)c1cc2nc(C3CC3)cc(C(F)(F)F)n2n1
  9.8%	-5.1%	9.1%	-2.9%	-2.8%	0.2%	1.2%	1.7%
37) CCOc1ccc(/C(O)=C2\C(=O)C(=O)N(CCN(C)C)C2c2cccc(OC)c2OC)cc1Cl (stereo not drawn)
  2.0%	0.1%&6.8%	33.8%	-0.3%	1.1%	-5.4%	18.6%	-1.5%
38) CC(C)CC(=O)NC(=S)Nc1ccccc1F
  23.8%	8.2%	-27.8%	x	12.2%	-5.7%	5.5%	2.3%
39) O=C(CC(=O)N/N=C/c1c(F)cccc1Cl)NCc1ccccc1
  -4.6%	u	-0.4%	-1.7%	-11.1%[46.1 µM]	x	x	-0.1%
40) CCOC(=O)/C(N=Nc1ccc(Cl)cc1)=C(/O)c1ccc([N+](=O)[O-])cc1
  -25.8%	-0.6%	-8.9%	-3.3%	-5.5%	5.9%	u	5.4%
41) Nc1cc(-c2ccc(Cl)cc2)nn1S(=O)(=O)c1cccc2nsnc12
  -26.1%	x	4.9%	1.1%	x	-3.0%	u	18.1%
42) O=C(CS(=O)(=O)c1cccc2nsnc12)N1CCN(c2cccc(C(F)(F)F)c2)CC1
  -9.4%	x	x	x	3.8%[46.1 µM]	-5.7%	u	x
43) Clc1ccc(-c2csc(N/N=C/c3ccc4c(c3)OCO4)n2)cc1
  14.7%	-13.2%	4.8%	5.7%	-10.8%	0.7%	u	5.7%
44) Cc1ccc(C(=O)N2C(=S)C(c3ccc(F)cc3)=NC23CCN(C)CC3)cc1
  -35.0%	u	-16.6%	6.8%	u	-18.4%	0.0%	13.8%
45) O=S(=O)(Nc1ccncc1)c1ccc(Cl)cc1
  57.3%[activator]	u	-12.4%	-5.1%	-19.8%	5.5%	-10.1%	4.8%
46) O=C(Cn1ccc2cc(S(=O)(=O)N3CCCCC3)ccc21)NCc1ccccc1Cl
  8.7%	x	x	x	u	-3.7%	-11.7%	x
47) CCc1nc(SCC(=O)N2CCC(C)CC2)c2c(=O)n(C)c(=O)n(C)c2n1
  -14.7%	x	-1.6%	8.0%	x	-8.3%	-8.2%	-39.4%
48) CN1C(=S)SC(C)(NO)C1(C)C (stereo not drawn)
  23.9%	-11.5%	0.6%	-6.6%	0.7%	9.3%	-1.6%	-19.9%

Assay outcomes deposited in PubChem BioAssay by National Center for Advancing Translational Sciences (NCATS).
